# Assay outcomes (PubChem BioAssay)
# AF4-AF9 inh: inhibitors of AF4 peptide binding to AF9, primary screen, biochemical, AlphaScreen, biotin-AF4 peptide, FLAG-AF9, single point; inhibition, % at 10 µM; Protein AF-9 (Homo sapiens), P42568; 350,000 compounds, 0.47% hits; AID 651704, 2012;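 active = every replicate reaching a set inhibition limit, whatever the replicate mean, cut at about 25% in these data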;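 also: 0% = plate neutral control median and 100% = total signal loss; the record names both 10 and 1 µM as test concentration; the first replicate is given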
# Target sequence (P42568 whole entry, looked up): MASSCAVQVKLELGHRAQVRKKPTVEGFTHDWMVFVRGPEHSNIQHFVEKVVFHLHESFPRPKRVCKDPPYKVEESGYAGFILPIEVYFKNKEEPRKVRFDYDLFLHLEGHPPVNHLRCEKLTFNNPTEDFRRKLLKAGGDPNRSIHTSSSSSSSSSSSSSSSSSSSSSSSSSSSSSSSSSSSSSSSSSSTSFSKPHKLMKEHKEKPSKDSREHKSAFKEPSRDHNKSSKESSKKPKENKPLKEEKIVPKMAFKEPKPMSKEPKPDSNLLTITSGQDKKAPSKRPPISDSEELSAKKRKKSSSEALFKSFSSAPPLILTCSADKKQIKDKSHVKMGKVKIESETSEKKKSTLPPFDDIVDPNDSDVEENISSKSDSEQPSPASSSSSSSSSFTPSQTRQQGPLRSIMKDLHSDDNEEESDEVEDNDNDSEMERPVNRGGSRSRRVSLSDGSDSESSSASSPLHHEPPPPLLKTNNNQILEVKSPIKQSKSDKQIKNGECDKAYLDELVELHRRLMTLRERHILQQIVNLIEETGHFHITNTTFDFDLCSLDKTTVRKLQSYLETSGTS
# Active calls of the source: *; & = joins results of further samples. Some of the compounds tested (hit frequency here may not be typical).
SMILES,AF4-AF9 inh
C[C@@H](NC(=O)C[C@H]1C=C[C@@H](NC(=O)C2CCOCC2)[C@@H](CO)O1)c1ccccc1,-0.8
CCCC(=O)N1CCC1(C)C(=O)Nc1ccc2c(c1)CCN2C(C)=O (centres undefined),-4.1
N#C[C@@H]1[C@@H](c2ccc(-c3ccc(F)cc3)cc2)[C@H](CO)N1C(=O)Cc1ccccc1,-0.8
Cc1ccc(CN2C(=O)CCC2(C)c2nnnn2-c2c(C)cccc2C)cc1 (centres undefined),2.4
CCCS(=O)(=O)NC(=O)C1(C)CCCN(C(=O)c2c(F)cccc2F)C1 (centres undefined),0.5
CCc1nc2c(OCc3ccc(C(=O)OC)cc3)cccn2c1N(C)C(=O)CC(C)C,3.0
CO[C@H]1CN(C)C(=O)c2ccc(NC(=O)NC(C)C)cc2OC[C@@H](C)N(C(=O)CN(C)C)C[C@H]1C,-0.2
CCCC#Cc1ccc2c(c1)O[C@@H](CN(C)C(=O)NC(C)C)[C@H](C)CN([C@@H](C)CO)S2(=O)=O,-1.0
C[C@@H]1CN([C@@H](C)CO)C(=O)c2cccc(NS(=O)(=O)c3ccccc3)c2O[C@H]1CN(C)Cc1ccc(Oc2ccccc2)cc1,2.1
Cc1noc(C)c1S(=O)(=O)N(C)C[C@@H]1Oc2ccc(NS(=O)(=O)c3ccccc3)cc2C(=O)N([C@H](C)CO)C[C@@H]1C,0.0
C[C@@H]1CCCCO[C@H](CN(C)S(=O)(=O)c2ccc(F)cc2)[C@H](C)CN([C@@H](C)CO)C(=O)c2cc(NC(=O)CCC(F)(F)F)ccc2O1,-14
O=C(NCC1CCCCC1)[C@@H]1[C@@H](CO)[C@@H]2Cn3c(ccc(-c4cccnc4)c3=O)[C@H]1N2,-2.1
Cc1noc(C)c1S(=O)(=O)N(C)C[C@H]1OCCCC[C@@H](C)Oc2ccc(NS(=O)(=O)c3ccccc3)cc2C(=O)N([C@@H](C)CO)C[C@H]1C,-7.6
N#Cc1ccc(-c2ccc([C@@H]3[C@H]4CNC[C@@H]3N4Cc3cc(F)ccc3F)cc2)cc1,1.5
COc1ccc(-c2ccc([C@H]3[C@@H](CO)N4CCCCN(CC5CCOCC5)C[C@@H]34)cc2)cc1,5.2
Cc1noc(C)c1NC(=O)NCC[C@H]1CC[C@H](NC(=O)c2ccccc2)[C@@H](CO)O1,0.1
C[C@@H]1CN([C@H](C)CO)C(=O)c2cc(C3=CCCCC3)cnc2O[C@H]1CN(C)Cc1ccncc1,0.6
COC(=O)C[C@H]1CC[C@H]2[C@H](COc3ccc(NC(=O)c4cccc(Cl)c4)cc3C(=O)N2C)O1,2.2
O=C(C[C@@H]1C[C@@H]2c3cc(NC(=O)C4CCC4)ccc3O[C@@H]2[C@@H](CO)O1)NCc1ccc(Cl)cc1,-2.8&-0.8
C[C@@H]1CN([C@@H](C)CO)C(=O)Cc2cc(NC(=O)Nc3ccc(F)cc3)ccc2O[C@H]1CN(C)Cc1ccc(C(F)(F)F)cc1,2.8
C[C@@H]1CN([C@H](C)CO)C(=O)c2cc(NC(=O)CCCN(C)C)ccc2O[C@H]1CN(C)C(=O)Nc1ccc(F)cc1,-1.6
COc1cccc(-c2cnc(C(O)c3ccc(F)c(F)c3)[nH]2)c1 (centres undefined),5.7
C[C@@H]1CN([C@@H](C)CO)C(=O)Cc2cc(NC(=O)CCCN(C)C)ccc2O[C@H]1CN(C)CC1CCCCC1,14
C[C@@H]1CN([C@@H](C)CO)C(=O)c2cc(NC(=O)Nc3ccccc3)ccc2O[C@@H](C)CCCCO[C@H]1CN(C)C(=O)c1ccccc1,1.6
Cc1noc(C)c1S(=O)(=O)Nc1ccc2c(c1)C(=O)N([C@H](C)CO)C[C@@H](C)[C@H](CN(C)CC1CCCCC1)OCCCC[C@@H](C)O2,9.0
CC1=C(C(=O)N2CCOCC2)CC(CC(=O)NCCc2ccccn2)C(=O)N1CCC1=CCCCC1 (centres undefined),-2.6
COc1ccccc1C#Cc1cnc2c(c1)C(=O)N([C@@H](C)CO)C[C@H](C)[C@@H](CN(C)C(=O)c1ccc3c(c1)OCO3)O2,5.2
CO[C@H]1O[C@H](CO)[C@@H](OC(=O)Nc2ccccc2-c2ccccc2)[C@H](OC(=O)Nc2ccccc2-c2ccccc2)[C@@H]1OC(=O)Nc1ccccc1-c1ccccc1,1.3
C[C@@H]1CCCCO[C@H](CN(C)S(=O)(=O)c2ccccc2)[C@@H](C)CN([C@H](C)CO)C(=O)c2cc(NS(=O)(=O)c3cn(C)cn3)ccc2O1,-2.9
CN(C)C(=O)[C@H]1[C@H](CO)[C@H]2Cn3c(ccc(C4=CCCCC4)c3=O)[C@@H]1N2Cc1ccccc1,2.6

# Rewritten with tabs: part of the list above
Structure	AF4-AF9 inh
Cc1noc(C)c1S(=O)(=O)Nc1ccc2c(c1)C(=O)N([C@H](C)CO)C[C@@H](C)[C@H](CN(C)CC1CCCCC1)OCCCC[C@@H](C)O2	9.0
CC1=C(C(=O)N2CCOCC2)CC(CC(=O)NCCc2ccccn2)C(=O)N1CCC1=CCCCC1 (centres undefined)	-2.6

# (continued)
SMILES,AF4-AF9 inh
CN(C)C(=O)C[C@H]1CC[C@@H]2[C@H](COc3ccc(NC(=O)c4ccc(F)c(F)c4)cc3C(=O)N2C)O1,0.1
C=CCSc1nc2sc3c(c2c(=O)[nH]1)CC(C)(C)OC3,4.0
O=C(NCc1cccnc1)c1cc(C2CCCN(C(=O)c3ccccn3)C2)on1 (centres undefined),-0.8
O=C(C[C@@H]1CC[C@H]2[C@@H](COC[C@H](O)CN2Cc2cc(F)cc(F)c2)O1)NCc1cccc(F)c1,-1.5
COc1ccc(CNC(=O)C[C@H]2C[C@H]3c4cc(NC(=O)NC5CCCC5)ccc4O[C@H]3[C@@H](CO)O2)cc1,-1.3
CN1C[C@@H]2[C@H](c3ccccc31)[C@H](CO)N2C(=O)c1cccnc1,-3.7
COc1cccc(CNC(=O)[C@@H]2[C@@H](CO)[C@@H]3Cn4c(ccc(C5=CCCCC5)c4=O)[C@H]2N3)c1,0.2
Cc1ccccc1S(=O)(=O)NC(=O)C1(C)CCN1C(=O)Cc1cccs1 (centres undefined),-6.3
C[C@@H]1CCCCO[C@@H](CN(C)C(=O)Nc2cccc3ccccc23)[C@H](C)CN([C@@H](C)CO)C(=O)c2cc(NC(=O)NC3CCCCC3)ccc2O1,-0.9
C/C=C/c1cnc2c(c1)C(=O)N([C@@H](C)CO)C[C@H](C)[C@H](CN(C)Cc1ccncc1)O2,-4.7

# Next part (4 carried over from the part before).
SMILES,AF4-AF9 inh
COc1cccc(CNC(=O)[C@@H]2[C@@H](CO)[C@@H]3Cn4c(ccc(C5=CCCCC5)c4=O)[C@H]2N3)c1,0.2
Cc1ccccc1S(=O)(=O)NC(=O)C1(C)CCN1C(=O)Cc1cccs1 (centres undefined),-6.3
C[C@@H]1CCCCO[C@@H](CN(C)C(=O)Nc2cccc3ccccc23)[C@H](C)CN([C@@H](C)CO)C(=O)c2cc(NC(=O)NC3CCCCC3)ccc2O1,-0.9
C/C=C/c1cnc2c(c1)C(=O)N([C@@H](C)CO)C[C@H](C)[C@H](CN(C)Cc1ccncc1)O2,-4.7
CC(=O)Nc1ccc(Nc2nc3ccccc3nc2NS(=O)(=O)c2ccc(Cl)c([N+](=O)[O-])c2)cc1,3.3
CC(C)C[C@H]1CN(CCCC[C@@H]2CNC(=O)C(=O)N2CCc2ccccc2)C(=O)C(=O)N1CCc1ccc(O)cc1,-2.5
COc1ccccc1S(=O)(=O)N[C@H]1CC[C@@H](CC(=O)N2CCCCC2)O[C@H]1CO,-14
C[C@@H]1CN([C@@H](C)CO)C(=O)c2cc(-c3ccccc3)cnc2O[C@H]1CN(C)C(=O)c1ccccc1F,-0.9
CCOC(=O)N(C)C[C@@H]1OCc2ccccc2-c2ccccc2C(=O)N([C@@H](C)CO)C[C@H]1C,-1.7
COCC(=O)N1C[C@@H](C)[C@@H](OC)CN(C)C(=O)c2cc(NC(=O)Nc3cccc(F)c3)ccc2OC[C@@H]1C,1.9
Cc1cccc(S(=O)(=O)N[C@H]2CC[C@H](CCNS(=O)(=O)c3ccccc3F)O[C@H]2CO)c1,-1.1
COCC#Cc1cnc2c(c1)C(=O)N([C@@H](C)CO)C[C@@H](C)[C@@H](CN(C)C)O2,-1.2
CN(C)CC#Cc1ccc([C@H]2[C@H](CO)N3CCCCN(C(=O)CN(C)C)C[C@@H]23)cc1,4.9
CC(C)NC(=O)N(C)C[C@H]1Oc2ccc(NC(=O)Nc3cccc4ccccc34)cc2C(=O)N([C@H](C)CO)C[C@@H]1C,-1.9
COCC#Cc1ccc([C@@H]2[C@@H](CO)N3CCCCN(S(=O)(=O)c4ccc(OC)cc4)C[C@@H]23)cc1,-0.4
C[C@H](CO)N1C[C@H](C)[C@@H](CN(C)S(=O)(=O)c2ccc(Cl)cc2)Oc2ccc(NC(=O)Nc3cccc4ccccc34)cc2C1=O,-0.3
CCC(=O)Nc1ccc2c(c1)OC[C@@H](C)N(C(=O)Cc1cccnc1)C[C@H](C)[C@@H](OC)CN(C)C2=O,-1.8
C/C=C/c1ccc([C@H]2[C@@H](CO)N(CC3CCCC3)[C@H]2CNC(C)=O)cc1,-0.2
CCCCNc1c(-c2ccc(F)cc2)nc2nc(C)cc(C)n12,1.4
CCS(=O)(=O)Nc1ccc2c(c1)C(=O)N(C)[C@H]1CC[C@@H](CC(=O)N[C@H]3CCN(Cc4ccccc4)C3)O[C@H]1CO2,-2.5
CNC[C@H]1OCCCC[C@H](C)Oc2ccc(NC(=O)C3CCCCC3)cc2C(=O)N([C@@H](C)CO)C[C@@H]1C,1.4
C[C@H](CO)N1C[C@H](C)[C@@H](CN(C)Cc2ccncc2)Oc2ncc(C#Cc3cccnc3)cc2C1=O,3.4
O=C(C1CCCC1)N1CC2(C1)[C@H](c1ccccc1)[C@H](CO)N2CC1CCCC1,-1.8
CN(C)C(=O)[C@@H]1[C@@H](CO)[C@@H]2Cn3c(ccc(/C=C/c4ccccc4)c3=O)[C@@H]2N1CC1CC1,-9.3
CC(C)(C)n1nnnc1C(c1ccccc1)N1CCN(C/C=C/c2ccccc2)CC1 (centres undefined),4.1
Cn1c(NCCc2ccncc2)nc2cc(-c3ccccc3)sc2c1=O,-1.1
CCCC(=O)Nc1ccc2c(c1)C(=O)N(C)[C@H]1CC[C@@H](CC(=O)N3CCCCC3)O[C@H]1CO2,-2.4
C[C@H](CO)N1C[C@H](C)[C@@H](CN(C)S(C)(=O)=O)Oc2c(NC(=O)c3nc4ccccc4s3)cccc2C1=O,14
C[C@H](CO)N1C[C@H](C)[C@@H](CN(C)Cc2ccc3c(c2)OCO3)Oc2c(NC(=O)NC3CCCCC3)cccc2C1=O,10
CC=Cc1ccc2n(c1=O)C[C@@H]1[C@@H](CO)[C@H](C(=O)NC3CCC3)N(C(=O)C3CCC3)[C@H]21 (mixture of isomers),-2.3
CC(C)NC(=O)Nc1ccc2c(c1)C(=O)N([C@H](C)CO)C[C@@H](C)[C@H](CN(C)CC1CCCCC1)OCCCC[C@@H](C)O2,12
C[C@@H](NC(=O)[C@H]1[C@H](CO)[C@H]2Cn3c(cccc3=O)[C@H]2N1Cc1cccnc1)c1ccccc1,1.1
C[C@H]1CN([C@@H](C)CO)C(=O)c2cc(-c3ccccc3F)cnc2O[C@H]1CN(C)C,-14
COc1ccc(-c2ccccc2[C@@H]2[C@H](C#N)N(C(=O)C3CC3)[C@H]2CO)cc1,-3.1

# Brought forward from above: 3 entries, followed by the next part.
SMILES,AF4-AF9 inh
C[C@@H](NC(=O)[C@H]1[C@H](CO)[C@H]2Cn3c(cccc3=O)[C@H]2N1Cc1cccnc1)c1ccccc1,1.1
C[C@H]1CN([C@@H](C)CO)C(=O)c2cc(-c3ccccc3F)cnc2O[C@H]1CN(C)C,-14
COc1ccc(-c2ccccc2[C@@H]2[C@H](C#N)N(C(=O)C3CC3)[C@H]2CO)cc1,-3.1
CO[C@@H]1CN(C)C(=O)c2cc(NC(=O)NC(C)C)ccc2OC[C@@H](C)N(C(=O)CN(C)C)C[C@H]1C,0.3
COc1ccc(NC(=O)Nc2ccc3c(c2)C(=O)N([C@H](C)CO)C[C@H](C)[C@H](CN(C)C(=O)Nc2ccc(F)cc2)OCCCC[C@@H](C)O3)cc1,0.9
CCCC#Cc1ccc([C@@H]2[C@@H](C#N)N(C(=O)C3CCCC3)[C@H]2CO)cc1,-4.4
O=C(C[C@@H]1CC[C@H]2[C@@H](COC[C@H](O)CN2C(=O)Nc2ccccc2)O1)NCc1ccccc1F,-3.6
N#C[C@H]1[C@H](c2ccc(C#CCC3CCCC3)cc2)[C@H](CO)N1C(=O)c1ccccn1,-2.2
COc1ccc2c3c([nH]c2c1)[C@@H](CO)N(C(=O)Cc1ccccc1)CC31CCN(C(=O)Nc2ccccc2F)CC1,2.4
C[C@H](NC(=O)[C@@H]1CCCN1C(=O)OC(C)(C)C)c1ccccc1,0.0
N#C[C@H]1[C@@H](c2ccc(/C=C/c3ccccc3)cc2)[C@@H](CO)N1C(=O)C1CCOCC1,-0.2
C[C@@H]1CCCCO[C@@H](CN(C)Cc2ccc(C(=O)Nc3ccccc3N)cc2)[C@@H](C)CN([C@H](C)CO)C(=O)c2cc(NC(=O)Nc3cccc4ccccc34)ccc2O1,-0.4
O=C(C[C@H]1CC[C@H]2[C@@H](COC[C@H](O)CN2S(=O)(=O)c2cccc(Cl)c2)O1)Nc1ccc(-c2ccccc2)cc1,-1.7
CC(C)NC(=O)N(C)C[C@@H]1OCCCC[C@H](C)Oc2ccc(NC(=O)Nc3ccc(F)cc3)cc2C(=O)N([C@@H](C)CO)C[C@@H]1C,1.6
C[C@H](O)C#Cc1cnc2c(c1)C(=O)N([C@@H](C)CO)C[C@@H](C)[C@H](CN(C)C(=O)c1ccc(F)cc1)O2,-4.4
OC[C@@H]1Nc2ccc(-c3cccc(F)c3)cc2[C@H]2[C@@H]1CCN2Cc1ccc(F)cc1,-1.7
